HCMV UL50-53 inh – inhibitors of HCMV UL50-UL53 interaction, biochemical, HTRF | 190,000 tested, 0.15% active | inhibition, % (no concentration beside the values) | AID 1918969, 2023 | normalized percent inhibition;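 active = both replicates at 50% or more, plus weaker picks with an unusually low signal ratio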;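 note: stock transfer was 100 nL into about 20 µL; 0% = negative control wells and 100% = wells with untagged competitor protein; inactives centre near -12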
GIV Gai3 FP – inhibitors of GIV peptide binding to Galpha-i3, primary screen, biochemical, fluorescence polarization, FITC-GIV GBA peptide, rat Galphai3. 90 min; hits give low values; scaled: aluminum fluoride 0%, vehicle 100%. percent of control (FP), % (no concentration beside the values). 210,000 tested, 0.42% active. AID 1224905, 2016;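 active = replicate mean at 85% of control or lower, very high polarization wells dropped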;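 note: wells of about 15 µL received 100 nL stock; the first replicate is given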
Target sequence (P08753 whole entry, looked up): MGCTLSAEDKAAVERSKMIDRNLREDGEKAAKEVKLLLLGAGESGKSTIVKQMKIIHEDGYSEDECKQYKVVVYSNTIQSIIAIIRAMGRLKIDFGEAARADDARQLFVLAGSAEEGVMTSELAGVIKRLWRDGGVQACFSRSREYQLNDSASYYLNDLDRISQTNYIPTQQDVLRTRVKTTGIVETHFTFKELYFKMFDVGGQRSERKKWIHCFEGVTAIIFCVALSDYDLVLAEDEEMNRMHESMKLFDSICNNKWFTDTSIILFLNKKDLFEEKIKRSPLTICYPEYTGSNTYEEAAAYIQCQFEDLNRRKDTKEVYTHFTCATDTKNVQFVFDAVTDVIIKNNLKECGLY
Sa growth inh – S. aureus growth inhibition at 42 and 30 °C, primary screen, LtaS inhibitor project, RN4220, two temperatures | OD600, 20 h, 42 °C; hits give low values | relative growth, % (concentration not given with the values) | 170,000 tested, 0.53% active;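 active = growth at 42 °C up to 50% and 20 or more points under that at 30 °C, or under 10% at both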;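 note: 300 nL library stock went into each well; scaled to the means of positive and negative controls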
Sa growth inh second temp – further read-out of Sa growth inh, marked with its call; relative growth, %; measured here: growth at 30 °C;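 optical density after 20 h as mean of two plates; 100% = untreated growth and lower means inhibition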
* hit, by the source's call; · = not tested or not shown; & = joins results of further samples.

SMILES	HCMV UL50-53 inh	GIV Gai3 FP	Sa growth inh	Sa growth inh second temp
COc1cc(C2C3=C(CC(C)(C)CC3=O)OC3=C2C(=O)CC(C)(C)C3)ccc1OCc1c(F)cccc1Cl	-17	101	·	·
COc1cc(C2C(C#N)=C(N)Oc3n[nH]c(-c4cccc([N+](=O)[O-])c4)c32)cc(OC)c1OC (configuration not stated)	-41	99	·	·
Cc1nc2c(C(=O)NCCc3ccccc3)cnn2c(C)c1Cc1c(F)cccc1Cl	·	100	114	89
O=C(Nc1nc(-c2ccccc2)ns1)c1ccccc1	6	107	·	·
CC(C)OCCCN1C(=O)c2ccc(-c3ccccc3)n2CC1(C)C(=O)NC1CCCCC1 (configuration not stated)	-6	101	·	·
CCN(Cc1ccccc1)C(=O)C1CCN(c2ncnc3c2nc2n3CCCCC2)CC1	·	103	112	95
Cc1ccc(C)c(N2C(=O)N(Cc3c(F)cccc3Cl)c3ccccc3S2(=O)=O)c1	·	106	89	100
Cc1nn(-c2ccccc2)c(C)c1/C=C1\CCCC2=C1OC(N)=C(C#N)C2c1c(C)nn(-c2ccccc2)c1C (configuration not stated)	-43	169	82	63
O=C(CN1C(=O)CCC1=O)Nc1ccc(Cl)cc1	8	·	87	97
COc1ccc(-n2c(N)c(-c3nc4ccccc4n3C)sc2=S)cc1	·	100	94	83
CCOC(=O)c1c(CN2CCOCC2)oc2ccc(OC)cc12	-9	·	95	84
O=C(Cc1ccccc1)CC1(O)C(=O)Nc2ccccc21 (configuration not stated)	2	106	98	108
O=C(c1cccc(S(=O)(=O)N2CCOCC2)c1)n1nnc2ccccc21	-3	·	103	85
Cc1nc(-c2ccc(S(=O)(=O)Nc3ccc(OC(F)(F)F)cc3)cc2)co1	·	109	105	93
CCc1ccc(NC(=O)CN(Cc2ccccc2)S(=O)(=O)c2ccc3nc(C)sc3c2)cc1	·	104	95	93
NCCCc1ccco1	-19	109	114	58
Cc1cc(OCc2nc(CC(=O)NC3CC3)cs2)ccc1Cl	-13	123	·	·
N#CCCn1nc(Nc2ccccc2)n(-c2ccccc2)c1=S	-18	106	91	86
CCCc1c(C)nc2c(OC)cccc2c1SCC(=O)O	-33	·	115	94
Cc1ccc(CN(C)C(=O)c2ccc(C#N)cc2)o1	-6	·	100	97
Cc1cc(Nc2ccccc2)n(-c2ccccc2C(=O)O)n1	-15	·	108	62
Cc1nc2ccccc2c(=O)n1/N=C/c1ccc(N2CCOCC2)cc1	-29	·	92	86
O=C(Nc1cccc(-c2cn3ccccc3n2)c1)c1cccc(Cl)c1	·	103	97	91
c1ccc(-c2nc3ccccc3nc2N2CCCC2)cc1	-4	·	98	99
COc1ccccc1C(=O)OCC(=O)c1ccccc1F	18	·	89	95
CN(C)C(=O)C[n+]1ccc(C(N)=O)cc1	-82	109	88	78
CC(=O)N(c1ccc(C)cc1)C1C=CS(=O)(=O)C1 (configuration not stated)	6&-2&-4	93	·	·
COc1ccc(Cn2c(=O)c3oc4ccccc4c3n(Cc3cccc(F)c3)c2=O)cc1	·	101	85	106
COc1ccc(NC(=O)CCCN2C(=O)C3C4C=CC(C4)C3C2=O)c(OC)c1 (configuration not stated)	-4	97	88	87
COC(=O)Nc1ccc(S(=O)(=O)n2cnc3ccccc32)cc1	-8	·	101	97
COCC(C)NC(=O)C1CC(=O)N(c2ccccc2)C1 (configuration not stated)	-8	99	89	95
CCc1nnc(C(=O)Nc2cccc(C(=O)NC(C)CC)c2)s1 (configuration not stated)	-18	105	·	·
O=C(NC(C(=O)c1ccccc1)N1CCCCC1)c1ccccc1 (configuration not stated)	6	104	108	101
CCOc1ccc2cc(C3=NN(C(=O)CCC(=O)O)C(c4ccc(Br)cc4)C3)c(Cl)nc2c1 (configuration not stated)	-30	102	·	·
Cc1ccc(-c2noc3c(NCc4ccc5c(c4)OCO5)ncnc23)cc1	-21	105	·	·
O=c1cc(-c2ccccc2)[nH]c2nc(Cl)ccc12	-49	116	·	·
O=C(Nc1cccc2c1CCCC2)c1cc(C2CC2)[nH]n1	2	107	109	93
O=C1CCCCC1Sc1nnc(Cc2cccs2)n1CCc1ccccc1 (configuration not stated)	-28	·	108	98
COC(=O)c1ccc(COC(=O)c2cc(OC)c(OC)cc2NC(=O)c2ccco2)cc1	-35	·	102	97
O=C(O)c1cc(N2CCN(c3ccccc3F)CC2)nc2ccc(NC(=O)C3CCCC3)cc12	-63	110	·	·

Profiles as entered above. Values in the order: HCMV UL50-53 inh | GIV Gai3 FP | Sa growth inh | Sa growth inh second temp
`CCN(Cc1ccccc1)C(=O)C1CCN(c2ncnc3c2nc2n3CCCCC2)CC1` across the screens: · | 103 | 112 | 95
`CCOC(=O)c1c(CN2CCOCC2)oc2ccc(OC)cc12` across the screens: -9 | · | 95 | 84
`COC(=O)c1ccc(COC(=O)c2cc(OC)c(OC)cc2NC(=O)c2ccco2)cc1` across the screens: -35 | · | 102 | 97
`COCC(C)NC(=O)C1CC(=O)N(c2ccccc2)C1` (configuration not stated) across the screens: -8 | 99 | 89 | 95
`O=C(c1cccc(S(=O)(=O)N2CCOCC2)c1)n1nnc2ccccc21` across the screens: -3 | · | 103 | 85

(cont.)
SMILES	HCMV UL50-53 inh	GIV Gai3 FP	Sa growth inh	Sa growth inh second temp
NC(=O)C1CCN(Cc2cc(=O)oc3cc4c(cc23)CCC4)CC1	-20	·	79	83
Cc1ccc(N2CC(NC(=O)c3cccs3)CC2=O)cc1 (configuration not stated)	·	100	127	85
Cc1ccc(NC(=O)C2CCN(c3cc(C)nc4c(-c5ccc(Cl)cc5)c(C)nn34)CC2)c(C)c1	-1	108	99	84
Cc1ccc2c(CC(=O)Nc3ccccc3)coc2c1	-18	·	88	93
CC(C)N=C(N)/N=C(\N)Nc1ccc(Cl)cc1	-50&-26	·	94	85
CC(=O)Nc1cccc(OC(C)C)c1	2	105	101	83
COc1ccc(C2=NN(S(=O)(=O)c3ccccc3)C(c3cccc([N+](=O)[O-])c3)C2)cc1OC (configuration not stated)	-20	104	·	·
CN(C)C(=O)CN1CCN(C(=O)Nc2ccc(Cl)c(Cl)c2)CC1	-11	·	81	52
COc1ccccc1CC(=O)n1cccn1	-34	100	105	91
CN1C(=O)C(O)(C2COC(C)(C)CC2=O)c2cc(Br)ccc21 (configuration not stated)	2	104	103	98
O=C(NC1CCCCC1)N1CCc2cc(S(=O)(=O)N3CCc4ccccc43)ccc21	-20	102	·	·
CCOC(=O)CSc1ncnc2sc3c(c12)CCCC3	0	100	88	84
CCOc1ccc(C(=O)OC(C)C(=O)NC2CC2)cc1OCC (configuration not stated)	-9	·	100	91
CC(C)c1ccc(-c2noc(SCC(=O)N3CCN(c4ccccc4F)CC3)n2)cc1	·	104	104	68
Cc1cc(C(F)(F)F)[nH]c(=O)c1C#N	-10	·	109	105
COC(=O)c1noc(C)c1C(=O)/C=C/N1CCCCC1	-16	103	92	86
Cc1ccc(C)c(N2CCN(C(=O)CCCCCn3c(=O)[nH]c4ccccc4c3=O)CC2)c1	·	98	81	77
O=c1c2ccccc2[nH]c(=S)n1CCS	-17	·	128	99
O=C(Nc1ccccc1)C1CCN(C(=O)c2cccc(-n3cccc3)c2)CC1	-13	·	70	80
Cc1ccccc1CN1C(=O)c2ccccc2Sc2ccc(C(=O)N3CCCC3)cc21	·	102	72	66
O=S(=O)(/C=C/c1ccccc1)Nc1ccc2cn[nH]c2c1	-21	·	106	88
O=C(CCC(=O)N1CCSc2ccccc21)N1CCN(c2cccc(Cl)c2)CC1	-80	101	·	·
O=C(Cn1nc2n(CCc3ccccc3)c(=O)c3ccccc3n2c1=O)c1ccc(F)cc1	-9	100	·	·
CC(=O)NCc1ccc(C(=O)CSc2ncnc3sc(C)c(C)c23)o1	-16	·	84	55
COc1cc(OC)cc(N2C(=O)c3cc(C(C)(C)C)nn3CC2(C)C(=O)NC2CCCCC2)c1 (configuration not stated)	-6	99	·	·
O=c1oc2ccccc2cc1-c1csc(CCCCc2nc(-c3cc4ccccc4oc3=O)cs2)n1	-13	105	·	·
CN(C)S(=O)(=O)c1ccc(-c2nc(C#N)c(NC3CC3)o2)cc1	1	99	·	·
Cc1nc2ccc(S(=O)(=O)NCC(=O)Nc3ccc(F)cc3F)cc2s1	2	100	88	88
O=C(O)/C=C/C(=O)c1ccccc1	-11	101	124	104
O=C(CNC(=O)C1CCCCC1)NC1CCCCC1	-12	·	107	92
COC(=O)c1sc2ccccc2c1S(=O)(=O)N1CCN(c2ccc(C(C)=O)cc2)CC1	·	99	91	85
Cc1ccc(OC(=O)CSc2nnc(-c3cccs3)o2)c(C)c1	-18	98	93	88
Cc1ccccc1Cn1cc(NC(=O)c2cc(CC(C)C)on2)cn1	-23	99	81	82
O=C(Nc1nc(SCc2ccc(Cl)cc2)n[nH]1)C1=NN(C2CCS(=O)(=O)C2)C(=O)CC1 (configuration not stated)	6	·	88	85
COc1ccc(-n2c(=O)c3ccccc3n(CC(=O)OCc3ccccc3)c2=O)cc1OC	-1	101	109	96
COc1ccc2[nH]cc(S(=O)(=O)c3ccc(C)c(C)c3)c(=O)c2c1	-12	103	93	78
CC(=O)Oc1ccc(Br)cc1/C=C1\N=C(c2cc([N+](=O)[O-])ccc2Cl)OC1=O	-9	105	·	·
Cc1ccc2nc(/C(C#N)=C/c3ccccc3F)[nH]c2c1	-68	113	104	82
CC(C)OC(=O)c1cccc(NC(=O)Cn2nnc3sc4c(c3c2=O)CCCC4)c1	-34	102	100	84
CCCn1c(=O)n(C)c(=O)c2c(SC(C(=O)NC(=O)NC)c3ccccc3)nc(CC(C)C)nc21 (configuration not stated)	-15	·	106	98
CCOC(=O)N1CCc2c(sc(NCc3cccs3)c2C(=O)Nc2cc(Cl)ccc2OC)C1	·	133	99	65
O=C(CSc1nccc(=O)[nH]1)N1N=C2/C(=C/c3ccco3)CCCC2C1c1ccco1 (configuration not stated)	-48	·	91	90
Cc1cc(-c2cc(S(=O)(=O)N3CCCC3)c(C)s2)on1	-29	103	·	·
Cc1[nH]c(=O)[nH]c(=O)c1/C=N/NC(=S)NCc1ccc(OC(C)C)cc1	-12	98	124	100
O=C(NCCC1=CCCCC1)C1CCCN(c2cnccn2)C1 (configuration not stated)	0	103	98	96
Cc1cc(N2CCOCC2)nc2ccc(NC(=O)CCC(=O)NC3CCCCC3)cc12	-12	106	102	87
CCN(CC)c1c2c(nc3nncn13)CCC2	·	103	87	83
Cc1ccc(CC2C(=O)N(c3nc(C)cc(C)n3)C(=O)C2C)cc1 (configuration not stated)	2	103	99	103
Cc1cc(C)cc(OCC(=O)Nc2ccc(-c3nc4ncccc4o3)cc2C)c1	·	101	98	85
COc1ccc(C(=O)Nc2ccc3nc(SCC(=O)N4CCc5ccccc54)sc3c2)cc1	3	100	92	89

Next part
SMILES	HCMV UL50-53 inh	GIV Gai3 FP	Sa growth inh	Sa growth inh second temp
O=C1OC(c2ccccc2)=N/C1=C\c1ccc(N2CCOCC2)cc1	-9	·	94	82
O=C(N/N=C/c1cn(-c2ccccc2)nc1-c1ccccc1)c1ccco1	-2	108	140	75
CCOc1ccccc1NC(=O)CN1C(=S)NC(C)(C)CC1C (configuration not stated)	-16	101	97	83
COc1cc(C(=O)N2CCC(c3nc4ccccc4s3)CC2)cc(OC)c1OC	-30	102	103	85
Cc1ccccc1C(=O)NN1C(=O)c2ccccc2C1=O	-58	99	115	85
Cc1ccccc1OCC(=O)Nc1ccc(OCc2cc(=O)n3ccsc3n2)cc1	-29	103	105	83
CC1CCCCN1C(C(=O)O)c1ccccc1 (configuration not stated)	6	·	121	87
CC(C)(C)NC(=S)NCC1CC1	6	98	101	100
CCOC(=O)c1sc(N)c(C#N)c1COC(=O)CCCN1C(=O)c2ccccc2C1=O	-28	·	100	89
O=C(Nc1ccc(SCc2nnc(-c3ccccc3)o2)cc1)c1ccc2c(c1)OCO2	-35	104	·	·
O=C(C(c1ccccc1)N1Cc2ccccc2C1=O)N1CCc2ccccc21 (configuration not stated)	-16	112	98	100
COc1ccc(NC(=O)CCn2c(-c3ccc(F)cc3)cc(C(C)=O)c2C)c(OC)c1	·	107	122	98
COc1cc(Nc2ncc3c(n2)CCN(Cc2cc(Br)cs2)C3)cc(OC)c1	·	103	117	95
O=C(NCC1CCCO1)C1CCN(Cc2ccccc2O)CC1 (configuration not stated)	4	101	102	98
CCOC(=O)N1CCC(NC(=O)c2cc(C(=O)NC3CCCC3)ccc2CO)CC1	-20	109	117	92
CCC(Sc1nc2ccsc2c(=O)n1Cc1ccccn1)C(=O)Nc1cccc(OC)c1 (configuration not stated)	·	109	84	73

6 entries drawn at random from the list so far:
SMILES	HCMV UL50-53 inh	GIV Gai3 FP	Sa growth inh	Sa growth inh second temp
COc1ccc(NC(=O)CCn2c(-c3ccc(F)cc3)cc(C(C)=O)c2C)c(OC)c1	·	107	122	98
O=C(C(c1ccccc1)N1Cc2ccccc2C1=O)N1CCc2ccccc21 (configuration not stated)	-16	112	98	100
O=C(NCC1CCCO1)C1CCN(Cc2ccccc2O)CC1 (configuration not stated)	4	101	102	98
COc1cc(Nc2ncc3c(n2)CCN(Cc2cc(Br)cs2)C3)cc(OC)c1	·	103	117	95
CCOC(=O)N1CCC(NC(=O)c2cc(C(=O)NC3CCCC3)ccc2CO)CC1	-20	109	117	92
CCC(Sc1nc2ccsc2c(=O)n1Cc1ccccn1)C(=O)Nc1cccc(OC)c1 (configuration not stated)	·	109	84	73

Bioassay records (PubChem)
